DT40 TDP1 CPT: DT40-hTDP1 cell growth loss with CPT | Potency, µM (series often up to 46.2 µM), for inactives: at the highest dose activity change, negative = growth inhibition, most hits filed as inhibitors | chicken DT40 Tdp1-/-;hTDP1 cells + 20 nM CPT, ATP luminescence, 48 h | AID 686979 | 420,000 compounds, 12% hits; further: nearly all actives have a fitted effect of over 55% in size
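Cell growth measured by CellTiter-Glo luminescence after a minimum 48 h, 37 C compound exposure with 20 nM CPT in Tdp1-knockout DT40 cells stably expressing hTDP1, seeded 400/well; qHTS titration format.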
TDP1 cell noCPT: qHTS for Inhibitors of human tyrosyl-DNA phosphodiesterase 1 (TDP1): qHTS in cells in absence of CPT; DT40 Tdp1-/- hTDP1 cells, no CPT, ATP luminescence, 48 h; Potency, µM (top dose mostly 46.2 µM), inactives show at the top dose activity change, negative = growth inhibition, hits mostly inhibitors; 420,000 compounds, 15% hits; AID 686978, 2013; further: nearly all actives have a fitted effect of over 55% in size
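Seeded 400 DT40-hTDP1 cells/well (vehicle DMSO, no 20 nM CPT); pinned compounds; ≥48 hr at 37 °C; CellTiter-Glo luminescence as viability measure.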
* hit, by the source's call; ? = inconclusive. The call rests on the fitted dose curve; in most records, active means well fitted inhibition curve with a large enough effect; inconclusive means small, poorly fitted or top-dose-only effect; inactive means flat fitted curve, though single readings scatter. On the % scale 0 is the no-effect control and ±100 the full control effect; potency means the concentration at half of the fitted maximal effect. Not all compounds are listed; most or all hits stand in other tables.

SMILES | DT40 TDP1 CPT | TDP1 cell noCPT
O=C(O)CNS(=O)(=O)c1cc(Cl)c(Cl)cc1Cl | -2% | -5%
O=C(CSc1nnc(NC(=O)Cc2ccccc2)s1)NCc1ccco1 | -4% | -11%
CC/S(CC1CC1(Cl)Cl)=N\S(=O)(=O)c1ccc(C)cc1 (configuration not stated) | -2% | -13%
CSCC[C@H](NC(=O)OC(C)(C)C)C(=O)N1CCC(C(=O)N[C@@H](C)C(=O)NC(C)c2ccccc2)CC1 (some centres not stated) | ? | -24%
CCc1cc(=O)oc2cc(OCC(=O)NCCCN3CCCC3=O)ccc12 | -14% | 5%
CC(NC(=O)c1ccc(CS(=O)(=O)Cc2ccccc2F)o1)c1ccc2c(c1)OCCO2 (configuration not stated) | -11% | ?
CCOC(=O)Cn1cc([N+](=O)[O-])c(OC)n1 | 10% | 6%
NC(=O)c1ccc(NC(=O)COC(=O)C2CC3C=CC2C3)cc1 (configuration not stated) | 2% | 2%
Cc1cccc(-c2nc(-c3ccc4c(c3)[nH]c(=O)n4C)no2)c1 | -2% | 6%
CCn1ncc(/C=C/C(=O)NCc2cnn(C)c2C)c1C | 9% | 4%
CC(=O)Nc1ccc(NC(=O)C(C)Oc2ccccc2F)cc1 (configuration not stated) | 10% | -27%
COc1ccc(/C=C2/SC(c3ccc(C)cc3)=NC2=O)cc1OC | -13% | -26%
CC(=O)c1ccc(N2C(=O)[C@@H]3[C@H](C2=O)[C@H]2c4ccccc4C=NN2[C@@H]3C(C)=O)cc1 | 2% | 1%
O=S(=O)(CCc1ccccc1)/N=C/c1cccs1 | 2% | -30%
COn1c(SC(C)C)nc2ccccc2c1=O | 1% | -10%
O=C1c2ccccc2S(=O)(=O)N1CC1CC(c2ccccc2)=NO1 (configuration not stated) | -6% | 1%
COc1cc(C)c(Cl)cc1S(=O)(=O)n1ccnc1C | 2% | -3%
O=C(CCCCCN1C(=O)CCC1=O)Nc1ccc2c(c1)OCCO2 | -5% | -19%
CCCOC(=O)c1c(NC(=O)CCCn2nc([N+](=O)[O-])c(Cl)c2C)sc(C(=O)OC)c1C | -1% | -25%
COc1ccc(OC)c(NC(=O)C2CCCCC2C(=O)O)c1 (configuration not stated) | -9% | ?
Cc1ccc(OCCNC(=O)C2CC(=O)N(c3ccc(C)cc3)C2)cc1 (configuration not stated) | -23% | ?
Cc1cccc(N(C(=O)CNC(=O)c2cccs2)C(C(=O)NC2CCCC2)c2cccnc2)c1 (configuration not stated) | -22% | 0%
O=C(CN1C(=O)NC2(CCCC2)C1=O)N1CCN(S(=O)(=O)c2ccc(Cl)cc2)CC1 | -15% | 3%
CC(CN1CCCCC1)OC(=O)Cc1ccc(Cl)cc1 (configuration not stated) | -2% | 5%
O=C(CSc1nnc(-c2ccco2)n1CC1CCCO1)c1ccccc1 (configuration not stated) | -21% | ?

Looked up above:
TDP1 cell noCPT with `O=C(CN1C(=O)NC2(CCCC2)C1=O)N1CCN(S(=O)(=O)c2ccc(Cl)cc2)CC1` stands at 3%
TDP1 cell noCPT with `CSCC[C@H](NC(=O)OC(C)(C)C)C(=O)N1CCC(C(=O)N[C@@H](C)C(=O)NC(C)c2ccccc2)CC1` (some centres not stated) stands at -24%
DT40 TDP1 CPT with `COc1cc(C)c(Cl)cc1S(=O)(=O)n1ccnc1C` stands at 2%
TDP1 cell noCPT with `CC(=O)Nc1ccc(NC(=O)C(C)Oc2ccccc2F)cc1` (configuration not stated) stands at -27%

Whole records from above:
Results for `O=C(CSc1nnc(NC(=O)Cc2ccccc2)s1)NCc1ccco1` = DT40 TDP1 CPT = -4%; TDP1 cell noCPT = -11%
Results for `O=C1c2ccccc2S(=O)(=O)N1CC1CC(c2ccccc2)=NO1` (configuration not stated) = DT40 TDP1 CPT = -6%; TDP1 cell noCPT = 1%

Other records follow.
SMILES | DT40 TDP1 CPT | TDP1 cell noCPT
CCCC12CN3CCN(CC(C3)/C1=N\NC(=O)Nc1ccccc1)C2 | -20% | -7%
Cc1cc(S(=O)(=O)NCCCn2ccnc2)c(C)cc1Cl | -29% | -28%
CC(=O)c1ccccc1NC(=O)CN1C(=O)CS/C1=C\c1nc(-c2ccc(C)cc2)cs1 | 21% | -6%
OCC(O)C1OC(Nc2ccc(Br)cc2)C(O)C1O (configuration not stated) | 4% | -1%
CCC(C)(CC(=O)N(C)CCC#N)c1ccccc1 (configuration not stated) | -3% | 9%
CCOc1cc(/C=N/NC(=O)c2cccnc2)ccc1OCC(N)=O | 13% | 2%
CCCSc1nnc(NC(=O)c2sc3nc(-c4cccs4)ccc3c2N)s1 | -11% | -3%
Cc1cc(C)cc(NC(=O)N2CCC(NC(=O)c3ccco3)CC2)c1 | -7% | -8%
NC(=O)Cc1ccc(C(=O)c2ccccc2F)s1 | 0% | -16%
CCc1nnc(NC(=O)CN2CCN(CC)CC2)s1 | -8% | -7%
CN(C)c1ccc(P(=O)(OCc2ccccc2)C(O)c2cccnc2)cc1 (configuration not stated) | 9% | -8%
Cc1ccc(C(=O)OCC(=O)NC(=O)c2cccn2C)cc1[N+](=O)[O-] | -20% | 16%
CNS(=O)(=O)c1cccc(C(=O)NCC2(N3CCOCC3)CCCCC2)c1 | 4% | ?
Cc1ccc(S(=O)(=O)Cn2nnnc2C(c2ccccn2)N2CCN(c3ccccc3)CC2)cc1 (configuration not stated) | ? | -22%
CN(C(=O)CN1CCC(NC(=O)C2CCCCC2)CC1)C1CCCCC1 | -26% | -11%
Cc1onc(-c2ccccc2)c1C(=O)NCc1ccco1 | -4% | -41%
O=C(CN1C(=O)CCSc2ccccc21)Nc1ccccc1 | ? | -7%
Cc1cs/c(=N\N=C\c2cccc([N+](=O)[O-])c2)n1Cc1ccco1 | -8% | -11%
COc1ccc([N+](=O)[O-])cc1NC(=O)c1csc(C)c1 | 11% | 11%
Cc1ccc(C(=O)OCC(=O)NC(C)C)cc1S(=O)(=O)N1CCOCC1 | 0% | 9%
CCc1cccc(NC(=O)c2ccc(NS(=O)(=O)c3c(C)noc3C)cc2)c1 | -14% | -11%
CCN(CC1CCCN(CCc2cccc(OC)c2)C1)C(=O)c1ccc(COC)o1 (configuration not stated) | -13% | -4%
CCOC(=O)c1ccc(CSc2nnc(C)n2N)o1 | -6% | 2%
CC(=O)c1ccc(C(=O)NC2CCCN(Cc3ccccc3F)C2)cc1 (configuration not stated) | -6% | -19%
O=C1CN(S(=O)(=O)c2cc(Cl)ccc2Cl)c2ccccc2N1 | -14% | -9%

The closing 6 entries of the part before come first, to join the parts:
SMILES | DT40 TDP1 CPT | TDP1 cell noCPT
Cc1ccc(C(=O)OCC(=O)NC(C)C)cc1S(=O)(=O)N1CCOCC1 | 0% | 9%
CCc1cccc(NC(=O)c2ccc(NS(=O)(=O)c3c(C)noc3C)cc2)c1 | -14% | -11%
CCN(CC1CCCN(CCc2cccc(OC)c2)C1)C(=O)c1ccc(COC)o1 (configuration not stated) | -13% | -4%
CCOC(=O)c1ccc(CSc2nnc(C)n2N)o1 | -6% | 2%
CC(=O)c1ccc(C(=O)NC2CCCN(Cc3ccccc3F)C2)cc1 (configuration not stated) | -6% | -19%
O=C1CN(S(=O)(=O)c2cc(Cl)ccc2Cl)c2ccccc2N1 | -14% | -9%
COc1cc(/C=C(\C#N)C(=O)NC(C)C)ccc1OCc1ccc(C(=O)O)cc1 | -27% | ?
O=C(CSc1nnc(-c2ccncc2)o1)NC1C2CC3CC(C2)CC1C3 (configuration not stated) | -14% | -14%
CC(NC(=O)CN1CCC(C(N)=O)CC1)c1ccccc1 (configuration not stated) | 0% | 5%
CCc1nc2cc(C)nn2c2nc3ccccc3n12 | -19% | ?
O=C(Nc1ccc(Cl)cc1F)C1CC1c1ccccc1 (configuration not stated) | 4% | -28%
C=CCN1C(=O)c2ccccc2Sc2ccc(C(=O)NCC(OC)OC)cc21 | -2% | -5%
COCCNC(=O)[C@@]1(Cc2ccccc2)C=C[C@@H](C)N1C(C)=O | 14% | 8%
O=C1CSC(c2ccccc2F)N1c1ccccc1F (configuration not stated) | -2% | -3%
Cc1noc(C)c1CSc1nnc(-c2cccnc2)n1C1CCCCC1C (configuration not stated) | -2% | -26%
O=C(O)CCCC(=O)NCCc1ccncc1 | -14% | 2%

High-throughput results (PubChem BioAssay)
